Screening data from PubChem.
Cruzain inh noDet: blocks cruzain activity in detergent-free assay | actives 2.3% (n = 200,000) | Potency, µM, inactives show max response, negative = inhibition, hits mostly inhibitors | purified cruzain, Z-FR-AMC fluorescence, no detergent | P25779;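 note: plate controls were enzyme without inhibitor for no effect and buffer without enzyme for full effect; nearly all actives have a fitted effect of over 40% in size; top concentration of the series not given in the record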
Target sequence (P25779 123-467 limits assumed): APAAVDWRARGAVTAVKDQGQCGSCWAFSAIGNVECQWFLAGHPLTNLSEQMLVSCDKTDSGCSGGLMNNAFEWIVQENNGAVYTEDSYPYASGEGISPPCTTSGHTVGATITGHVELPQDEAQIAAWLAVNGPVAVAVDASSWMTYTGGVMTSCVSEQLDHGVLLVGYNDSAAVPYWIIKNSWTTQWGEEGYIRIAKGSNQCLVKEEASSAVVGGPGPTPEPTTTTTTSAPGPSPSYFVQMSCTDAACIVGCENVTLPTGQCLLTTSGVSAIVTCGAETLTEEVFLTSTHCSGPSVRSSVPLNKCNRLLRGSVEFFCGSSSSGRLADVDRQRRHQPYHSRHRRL
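Detergent-free condition (0.00005% Triton X-100) in acetate buffer pH 5.5 with DTT. 1.5 nM enzyme and compound were pre-mixed 15 min, then 2 uM Z-FR-AMC substrate added; reaction progress from fluorescence change between first and third reads (60 s).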
RE007 growth inh: less growth of the S. pombe RE007 Vpr strain; Potency, µM (titrated, usually from 92.2 µM), inactives show at the top dose activity change, negative = less growth; actives 0.21% (n = 360,000); S. pombe RE007 Vpr strain, BacTiter-Glo ATP luminescence, 24 h; control for the full effect not named in the record; active = well fitted falling curve with a large enough effect; inconclusive = small, poorly fitted or top-dose-only effect; inactive = no such curve, though single readings can be large or run the other way;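 note: % is set by controls: 0 for no effect and ±100 for the full control effect; nearly all actives have a fitted effect of over 50% in size; the assay follows cell death caused by Vpr and the record does not say whether a fall means rescue or toxicity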
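Fission yeast strain RE007, carrying one chromosomally integrated HIV-1 vpr copy, was seeded at OD 0.01 in PMG+AL medium with 23 nL pinned compound. After 24 h at 30 °C and 99% humidity, viability was read by BacTiter-Glo luminescence.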
Marburg entry inh: inhibitors of Marburg virus binding or cell entry. Marburg virus pseudotyped entry inhibition, cell reporter; control for the full effect not named in the record; about a third of the inactives were read at about 46 µM. Potency, µM (titrated, usually from 37.8 µM), without a hit: top-dose activity change, negative = inhibition, actives largely listed as inhibitors. actives 1.8% (n = 300,000). AID 540276; active = well fitted inhibition curve with a large enough effect; inconclusive = small, poorly fitted or top-dose-only effect, or effect the other way; inactive = flat fitted curve, though single readings scatter; tested in HEK293 cells; about a fifth of its hits are not listed in these tables; note: % is set by controls: 0 for no effect and ±100 for the full control effect; luciferase read-out
2A StopGo: FMDV 2A StopGo reporter, luciferase signal. human cells with a luciferase reporter of 2A StopGo recoding; control for the full effect not named in the record. Potency, µM (titrated, usually from 57.9 µM), without a hit: top-dose signal change, negative = less light. actives 1.2% (n = 410,000); active = well fitted falling curve with a large enough effect; inconclusive = small, poorly fitted or top-dose-only effect; inactive = no such curve, though single readings can be large or run the other way; tested in HEK293T cells; note: % is set by controls: 0 for no effect and ±100 for the full control effect; nearly all actives have a fitted effect of over 45% in size; luciferase light after 4 h
Cruzain inh Det: blocks cruzain activity in presence of Triton detergent; purified cruzain, Z-FR-AMC fluorescence, 0.01% Triton; P25779; Potency, µM, for the others: max response, negative = inhibition, usual class: inhibitors; actives 0.43% (n = 200,000);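 note: plate controls were neutral wells for no effect and buffer without enzyme for full effect; nearly all actives have a fitted effect of over 40% in size; top concentration of the series not given in the record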
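Detergent-containing run (0.01% Triton X-100) in acetate buffer pH 5.5 with 5 mM DTT: enzyme at 1.5 nM final, 15 min compound preincubation at room temperature, then 2 uM Z-FR-AMC substrate. Activity taken as 60 s fluorescence increase at 360/450 nm.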
LASV entry inh: inhibitors of Lassa virus binding or cell entry. Lassa virus pseudotype entry inhibition, cell reporter; control for the full effect not named in the record. Potency, µM (series often up to 37.9 µM), for inactives: at the highest dose activity change, negative = inhibition, hits mostly inhibitors. actives 1.2% (n = 300,000); active means well fitted inhibition curve with a large enough effect; inconclusive means small, poorly fitted or top-dose-only effect, or effect the other way; inactive means flat fitted curve, though single readings scatter; tested in HEK293 cells; note: % is set by controls: 0 for no effect and ±100 for the full control effect; nearly all actives have a fitted effect of over 50% in size; luciferase read-out
NS1 inh: blocks influenza NS1 protein function; S. cerevisiae slowed by influenza A NS1, growth recovery by OD600; Potency, µM (highest dose often 46.1 µM), for inactives: top-dose activity, positive = more growth; actives 0.4% (n = 270,000); active means well fitted rising curve with a large enough effect; inconclusive means small, poorly fitted or top-dose-only effect; inactive means no such curve, though single readings can be large or run the other way; note: nearly all actives have a fitted effect of over 50% in size
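Read-out: OD600 growth recovery of NS1-expressing budding yeast. Cells grown overnight at 30C in -URA glucose medium, washed, resuspended and diluted 1:100 in 2% galactose assay medium, pH 6.0. Same strain lacking NS1 served as positive control.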
SARS PLP yeast: SARS-CoV PLP inhibition in yeast; Potency, µM (series often up to 32.9 µM), for the others: at the highest dose activity, positive = growth rescue; actives 0.19% (n = 330,000); AID 485353; S. cerevisiae expressing SARS-CoV PLpro, growth rescue; control for the full effect not named in the record; active means well fitted rising curve with a large enough effect; inconclusive means small, poorly fitted or top-dose-only effect; inactive means no such curve, though single readings can be large or run the other way; note: 0% is about no effect; nearly all actives have a fitted effect of over 55% in size; growth read by luminescence after 48 h
An asterisk follows results filed as active; u = inconclusive; x = no result given; & = joins results of further samples; [ ] = dose if it differs, or a comment. Unless noted, calls come from the whole dose curve; as a rule, active = well fitted curve in the direction sought with a large enough effect; inconclusive = small, poorly fitted or top-dose-only effect, or another doubt; inactive = no such curve, though single readings can be large; an effect the other way counts as inactive or inconclusive. Potency is the fitted concentration of half-maximal effect.

SMILES	Cruzain inh noDet	RE007 growth inh	Marburg entry inh	2A StopGo	Cruzain inh Det	LASV entry inh	NS1 inh	SARS PLP yeast
Cc1cc(C(=O)Cn2nnc(-c3ccc(Cl)cc3)n2)c(C)n1-c1ccccc1	u	-6%	0%	u	-2.7%	2%	20%	-10%
COc1ccccc1OCCC(=O)OCC(=O)Nc1cccc(Br)c1	2%	-10%	-1%	-15%	-4.7%	u	-18%	10%
CCOC(=O)C1CCN(C(C)C(=O)c2c(C)[nH]c3cc(C)ccc23)CC1 (centres undefined)	-5%	8%	u	-29%	-2.0%	-30%	u	10%
COc1ccc(-c2ccc(CCC(=O)O)n2C(C)C)cc1	2%	4%	7%	x	-3.8%	4%	-34%	-4%
O=C(Nn1cnc2ccccc2c1=O)c1ccc(Cl)c([N+](=O)[O-])c1	x	5%	-2%	9%	x	0%	0%	1%
CC12CCC3C(CCC4N(CCO)CCC34C)C1CCC2O (centres undefined)	x	-5%	x	-26%	x	x	2%	7%
COc1ccccc1C(=O)NC(=O)COC(=O)c1nc(Cl)ccc1Cl	x	15%	20%	6%	x	2%	x	-10%
COc1ccc(C(=O)O)cc1S(=O)(=O)Nc1ccc2cn[nH]c2c1	x	15%	3%	-11%	x	23%	x	-2%
CCCN(CCC)Cc1c(C(=O)N/N=C/c2ccc(Br)cc2)nnn1-c1nonc1N	x	-6%	u	42%[activator]	x	u	-17%	4%
CC(=O)Nc1ccc(NC(=O)N(c2ccccc2)c2ccccc2)cc1	x	6%	x	0%	x	x	5%	-2%
Cc1cc(=O)n2c3ccccc3n(CC(O)CN3CCCC3)c2c1C#N (centres undefined)	-6%	3%	-28%	x	-1.9%	u	16%	3%
Cc1cc(C)c(NC(=O)CS(=O)CC(=O)N2CCN(c3ccccc3)CC2)c(C)c1 (centres undefined)	8%	1%	7%	-9%	2.3%	-13%	-3%	2%
CCOC(=O)c1[nH]c2ccc(F)cc2c1NC(=O)CN1CCc2cc(OC)c(OC)cc2C1	2%	x	x	x	-0.2%	x	-16%	-2%
COc1ccc(OC2OC3COC(c4ccco4)OC3C(O)C2NC(C)=O)cc1 (centres undefined)	5%	7%	u	-12%	-0.5%	-8%	-1%	9%
CNc1nc(Oc2ccc(=O)n(C)n2)nc(N2CCOCC2)n1	2%&-4%	-1%	12%[46.1 µM]	-14%&-2%	0.4%&1.1%	1%[46.1 µM]	0%	5%
O=C(CCN1C(=O)S/C(=C/c2ccccc2)C1=O)Nc1ccc(O)c(C(=O)O)c1	x	9%	27%[46.1 µM]	8%	x	18%[46.1 µM]	13%	-1%
CC1CCN(C(=O)Cn2nnnc2CN2CCOCC2)CC1	x	-1%	x	-9%	x	x	7%	5%
Cc1csc(Nc2ccc(Cl)cc2)n1	x	u	u	60%[activator]	x	5%	-8%	0%
CCC(C(=O)Nc1ccc(C(=O)OC)cc1)n1nc(-c2ccc(C)cc2)c2c(c1=O)CCCC2 (centres undefined)	-1%	x	u	u	-2.8%	-8%[46.1 µM]	x	x
C/C(=N\NC(=O)c1cccs1)c1ccncc1	x	-9%	x	48%[activator]	x	x	0%	1%
O=C(Cc1ccc(-c2ccccc2)cc1)Nc1ccccc1	x	9%	20%[46.1 µM]	16%	x	6%	0%	-4%
Cc1cc(C)nc(N(C#N)CN2C(=O)c3ccccc3S2(=O)=O)n1	-15%	5%	-24%	40µM*	-26%	-2%	-12%	3%
O=C(CN1CCN(c2ccccc2)CC1)Nc1ccccc1C(F)(F)F	u	-11%	-15%	u	-6.2%	-14%	-18%	2%
Cc1ccc(Cn2c(O)c(N=NC(=S)Nc3ccccc3F)c3ccccc32)cc1	x	5%	u	-22%	x	-29%	x	0%
O=[N+]([O-])c1cc([N+](=O)[O-])c(N2CCCCCC2)cc1NCCO	9%	3%	u	u	-18%	-16%	-6%	1%
O=C(Nc1cccc(F)c1)[C@@H]1CCCN1	x	25%	x	-14%	x	x	23%	-6%
CC(C)c1ccc(OCC(=O)NCC(c2ccc(Cl)cc2)N2CCOCC2)cc1 (centres undefined)	u	x	u	-23%	-10%	-9%[46.1 µM]	x	x
Cc1c(C(=O)C(=O)NCCc2ccc(S(N)(=O)=O)cc2)c2ccccc2n1C	-6%	4%	16%	-9%	-3.8%	-7%	9%	27%
CCOC(=O)N1CCC(N2CCN(C3CCCC3)C(CCO)C2)CC1 (centres undefined)	x	-11%	2%[46.1 µM]	1%	x	6%	5%	0%
COc1ccccc1CNC(=O)[C@H](Cc1c[nH]c2ccccc12)NC(=O)[C@@H]1Cc2ccccc2CN1	x	-4%	x	-11%	x	x	24%	-4%
CCN1C(=O)c2cccc3c(S(=O)(=O)Nc4ccccc4)ccc1c23	-26%	-15%	u	69%[activator]	-9.4%	-16%	-45%	-7%
CC12CC(=O)C3C(CCC4=CC(=O)CCC43C)C1CC=C2CC(=O)O (centres undefined)	x	7%	u	3%	x	3%[46.1 µM]	x	x
Cc1ncoc1C(=O)Nc1cccc(Cl)c1	11%	-13%	-6%	89%[activator]	0.9%	u	-51%	-10%
CCN(CC)c1nc(N2CCOCC2)nc2ccccc12	x	-8%	x	-25%	x	x	-3%	2%
O=C(NCC1CCN(c2ccc(S(=O)(=O)N3CCOCC3)cc2)CC1)Nc1ccccc1	x	1%	0%[46.1 µM]	-30%	x	u	11%	4%
Cc1cccc(-c2nc3ccccc3c(=O)n2N)c1	x	24%	x	-15%	x	x	1%	0%
O=C(O)C1CCNCC1	5%	x	u	x	5.8%	u	0%	x
O=C(Nc1ccccn1)c1c(O)c2cccc3c2n(c1=O)CCC3	u	-3%	u	12%	-2.6%	u	-9%	8%
CN1CCN(CC(=O)c2cc(C(C)(C)C)c(O)c(C(C)(C)C)c2)CC1	x	-17%	u	-17%	x	u	u	-1%
O=C(Nc1ccc2ccccc2n1)c1ccccc1	x	-25%	x	35%[activator]	x	x	-7%	-2%
Cc1ccc(S(=O)(=O)NN2C(=O)c3ccccc3NC2C)cc1 (centres undefined)	9%	-1%	u	-26%	0.3%	-1%	8%	4%
Nc1nc(CSc2nc3ccccc3s2)nc(Nc2ccccc2)n1	-30%	x	-4%	x	-8.8%	x	7%	8%
COc1ccccc1N1CCN(S(=O)(=O)CC23CCC(CC2=O)C3(C)C)CC1 (centres undefined)	10%	7%	0%	-9%	4.2%	9%	-19%	0%
Cc1nc2ccc(NC(=O)c3ccccc3)cc2s1	x	1%	-15%	55%[activator]	x	7%	-61%	-1%
COc1ccccc1CCNC(=O)CCc1c(C)c2cc3c(C)coc3cc2oc1=O	13%	x	0%[46.1 µM]	-19%	-5.3%	8%[46.1 µM]	x	x
CCc1ccc(Cn2ncc3c(C(=O)O)cc(C)nc32)cc1	x	-2%	1%[46.1 µM]	-7%	x	1%	x	x
CCC(CC)NC(=O)CO/N=C/c1ccc(Cl)cc1Cl	x	14%	u	-16%	x	4%[46.1 µM]	x	-4%
Cc1ccc(Cl)cc1NC(=O)CN1C(=O)CSc2ccc(S(=O)(=O)N3CCCC3)cc21	-5%	x	x	-7%	-5.3%	-29%[46.1 µM]	x	x
Cn1cccc1C(=O)OCC(=O)c1ccc(Br)s1	x	-27%	14%	33%[activator]	x	22%	x	-13%
O=C(CSC1=NC(=O)C(Cc2ccccc2)C(=O)N1)Nc1ncccn1 (centres undefined)	1%	x	2%	x	-0.2%	x	5%	2%
CCOc1ccc(OCc2ccc(C(=O)N3CCCC(C)C3)cc2)cc1 (centres undefined)	x	19%	u	-12%	x	6%	x	-2%
Cc1ccc(-n2c(C)cc(C(=O)CN3CCOCC3)c2C)cc1	x	32%	8%[46.1 µM]	42%[activator]	x	x	x	2%
O=C(CCC(=O)Nc1ccccc1)NNS(=O)(=O)c1ccccc1[N+](=O)[O-]	x	1%	4%[46.1 µM]	-5%	x	0%	x	0%
Cc1ccc(NC(=O)CSc2nc(O)cc(=O)n2C)cc1	5%	-2%	1%[46.1 µM]	-7%	-13%	5%	11µM*	-1%
CCOC(=O)C1CCN(C(=O)c2ccccc2CCc2ccccc2)CC1	x	5%	x	1%	x	x	-18%	-1%
COc1ccccc1NC(=O)COC(=O)c1ccc2c(c1)OCCO2	x	4%	u	-16%	x	4%	x	-1%
Cn1cnnc1SCC(=O)OCN1C(=O)c2ccccc2C1=O	8%	2%	0%	-24%	4.8%	9%	u	-21%
Cc1cc(/C=C2/NC(=O)NC2=O)c(C)n1-c1ccc(N2CCOCC2)cc1	x	1%	-25%[46.1 µM]	-29%	x	u	x	0%
O=C(CSc1nnc(C2CC2)n1CC1CCCO1)Nc1ccccc1Cl (centres undefined)	x	-14%	-8%[46.1 µM]	7%	x	-2%	-4%	-2%
Cc1ccc(CN2CC(C(=O)N3CC(C)CC(C)C3)CC2=O)cc1 (centres undefined)	x	17%	0%[46.1 µM]	-8%	x	-17%	x	-3%
Following part
SMILES	Cruzain inh noDet	RE007 growth inh	Marburg entry inh	2A StopGo	Cruzain inh Det	LASV entry inh	NS1 inh	SARS PLP yeast
Cc1nn(-c2ccc(C(=O)OC(C)C)cc2)c(C)c1[N+](=O)[O-]	x	6%	u	10%	x	u	x	-2%
Cc1n[nH]c(C)c1Cc1ccc(C(=O)O)cc1	-7%	7%	7%	x	11%	16%	-7%	2%
CCCCCNc1nc(-c2ccccc2)nc(-n2ccnc2)n1	x	6%	1%	-9%	x	0%	x	-2%
COc1ccc2cc(C(c3nnnn3C3CCCC3)N3CCCCCC3)c3nnnn3c2c1 (centres undefined)	4%	16%	u	2%	-2.7%	-18%	12%	-16%
Cc1ccc(NP(=O)(Nc2ccc(C)cc2)Nc2ccc(C)cc2)cc1	x	26%	u	16%	x	u	x	-1%
Cc1cc(C)c2c(=O)cc(C(=O)Nc3ccc(S(=O)(=O)Nc4nc(C)cc(C)n4)cc3)oc2c1	u	x	21%[46.1 µM]	14%	-0.6%	0%[46.1 µM]	x	x
Cc1nnc(SCC(=O)N2CCc3ccccc32)s1	-6%	6%	7%	x	2.7%	0%	-7%	-1%
